NPYLR7 agonist – activates Aedes aegypti NPYLR7 receptor; HEK293T NPYLR7/Galpha15, GCaMP6s calcium fluorescence; activation, % at 10 µM; actives 0.15% (n = 270,000); in the data active = activation above about 40%;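 note: 0% = vehicle and 100% = reference agonist at the receptor; some compounds past the cut are filed as inactive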
NPYLR7 agonist max-min – also measured in NPYLR7 agonist; calls as there; activation, %; measured here: Max-Min RFU normalised activation; some inactives read as strong as hits;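 span of the calcium signal over five minutes; 0% = vehicle and 100% = native peptide agonist; compound fluorescence can raise it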
* hit, by the source's call; & = joins results of further samples. This is a subset; the hit share may differ from the screen's.

Sample of the layout, 4 compounds:
SMILES	NPYLR7 agonist	NPYLR7 agonist max-min
COc1cc(C#N)cc(Cl)c1OCC(=O)Nc1ccc(N2CCCC2)cc1C	-9	-10
CCOCCCN(CC(=O)N(Cc1ccc(F)cc1)Cc1ccco1)C(=O)C12CC3CC(CC(C3)C1)C2	20	23
CN(Cc1nc2ccccc2[nH]1)C(=O)c1cn(Cc2cccc(C(F)(F)F)c2)nn1	3	2
COc1ccc(-c2nc(NC(=O)c3cc(Br)c(O)c(OC)c3)sc2C)cc1	2	4

The listing, from the first entry:
SMILES	NPYLR7 agonist	NPYLR7 agonist max-min
COc1cc(C#N)cc(Cl)c1OCC(=O)Nc1ccc(N2CCCC2)cc1C	-9	-10
CCOCCCN(CC(=O)N(Cc1ccc(F)cc1)Cc1ccco1)C(=O)C12CC3CC(CC(C3)C1)C2	20	23
CN(Cc1nc2ccccc2[nH]1)C(=O)c1cn(Cc2cccc(C(F)(F)F)c2)nn1	3	2
COc1ccc(-c2nc(NC(=O)c3cc(Br)c(O)c(OC)c3)sc2C)cc1	2	4
Cc1ccc(C(=O)NS(=O)(=O)CC(C)C)s1	-1	-9
COc1ccccc1C(=O)N1CCN(C(C(=O)NCc2ccccn2)C2CCCC2)CC1 (stereo not given)	-8	0
Cc1c(CNCC(C)(C)c2ccccc2)c(=O)n(-c2ccccc2)n1C	-1	-9
Cc1csc(Sc2csc(Cl)n2)n1	5	3
O=C1C[C@H]2CC[C@@H](CN1)N2C(=O)c1ccnnc1	8	7
Cc1sc2nc(CN3CCOCC3)nc(N3CCN(c4ncccn4)CC3)c2c1C	15	14
CC(C)C1CN(C(=O)NCc2ccc(Cl)cc2)CCC(=O)N1CC1CC1 (stereo not given)	-4	-4
CCCCN1C(=O)C2CCC(=O)CC2C1=O (stereo not given)	6	5
O=C(Nc1cccc(-c2cccc(-c3ccc4c(c3)OCCO4)n2)c1)c1ccc(F)cc1C(F)(F)F	10	11
COc1ccc(CCNC(=O)CN2CN(c3ccccc3)C3(CCN(S(=O)(=O)c4ccc(F)cc4)CC3)C2=O)cc1OC	24	24
CS(=O)(=O)c1ccc(Nc2nc(CC(=O)NCC3CCCCC3)cs2)cc1	4	-3
CCc1nc(CN(C)C2CCN(Cc3ccc(F)cc3C#N)C2)no1 (stereo not given)	-2	-2
C=CCN1C(=O)/C(=C\c2ccc(SC)cc2)SC1=S	-7	-11
COc1ccc(NC(=O)Cc2cc(C)no2)c(NC(=O)C(C)C)c1	-4	-6
N#CC1C(=N)SC(=N)C(C#N)C1c1cccc(F)c1 (stereo not given)	97*	93*
Cc1cc(OCC(O)CNC2CCSCC2)ccc1Cl (stereo not given)	2	1
O=S(=O)(c1ccc(F)c(F)c1)N1CCN(Cc2nc(-c3cccc(Br)c3)no2)CC1	-4	-4
CSc1ncc(CN2CCC(CO)(CC3CCCCO3)CC2)cn1 (stereo not given)	15	4
CC(=O)c1cccc(NC(=O)COC(=O)c2cc(Br)c[nH]2)c1	3	3
COc1ccc(S(=O)(=O)N2CCN(C(C)C(=O)NC34CC5CC(CC(C5)C3)C4)CC2)cc1 (stereo not given)	7	4
N#Cc1ccccc1S(=O)(=O)N1CCN(C(=O)C2=Cc3ccccc3OC2)CC1	0	3
CC(Cc1ccc(Br)cc1)NC(=O)Cn1[nH]c(=O)c2ccccc2c1=O (stereo not given)	3	0
COCCn1c(SCC(=O)N2CCCC2)nc2c([nH]c3ccccc32)c1=O	-3	-3
CN(CC(=O)Nc1sc2c(c1C(N)=O)CCCC2)C1CCCCC1	-2	-1
O=C(CN1CCN(c2nc(CCc3ccccc3)nc3sc4c(c23)CCCC4)CC1)N1CCCC1	-2	1
O=C(NCc1ccc(-c2ccccc2)cc1)c1cc2n(n1)CCN(Cc1ccccc1F)C2=O	16	3
CCn1cc(CN(C)C(C)C(=O)N(C)C)cn1 (stereo not given)	-3	-2
O=C1N=C(N2CCCCC2)SC1=Cc1cccc([N+](=O)[O-])c1	-5	-12
Cc1csc(NC(=O)CCc2c(C)nn(-c3nc(C)c(C)c(=O)[nH]3)c2C)n1	5	-2
CC(=O)Nc1ccc(S(=O)(=O)N2CCC(CCc3ccccc3)CC2)cc1	0	8
CCc1ccc(C(=O)N(Cc2cccc(OS(=O)(=O)c3ccc(F)cc3)c2)C(C)C)cc1	-1	7
C=CCN1CC(C(=O)NCCN2Cc3ccccc3OC(c3ccsc3)C2)CC1=O (stereo not given)	26	13
CCOC1CC1C(=O)N1CCCCCC1CC(=O)c1ccco1 (stereo not given)	-1	-2
CNc1cnc(-c2ccc(C(=O)N3CCOCC3)cc2)cn1	3	0
COCC(=O)N1CCc2ccccc2C1c1ccc(Cl)cc1 (stereo not given)	-5	-4
O=C(O)c1c[nH]c2ccc(Br)cc12	1	8
CCCCCOC(=O)c1ccc(N2C(=O)C3C4C=CC(C4)C3C2=O)cc1 (stereo not given)	11	5
NC1=NC2(CCCC2)N=C(Nc2ccc(F)cc2)N1	7	8
CSc1nnc2c(n1)OC(c1ccccc1O)Nc1ccccc1-2 (stereo not given)	1	-6
O=C(Nc1cccnc1-c1cccc(O)c1)C1CC1	-2	-5
Cc1ccccc1-c1n[nH]c(=S)n1C1CCCCC1	-7	-3
O=C(CSCc1cc(=O)n2cc(Cl)ccc2n1)NCc1cccs1	-2	-6
O=C(Nc1cccc(-n2cccn2)c1)C1CCCN1C(=O)c1ccco1 (stereo not given)	2	-3
CNS(=O)(=O)c1ccc(Cl)c(S(=O)(=O)NC)c1	-1	0

Compound profiles, as listed above. Order of screens: NPYLR7 agonist, NPYLR7 agonist max-min
Shown for `O=C(Nc1cccc(-c2cccc(-c3ccc4c(c3)OCCO4)n2)c1)c1ccc(F)cc1C(F)(F)F` : 10, 11
Shown for `CCc1nc(CN(C)C2CCN(Cc3ccc(F)cc3C#N)C2)no1` (stereo not given) : -2, -2

Continuation:
SMILES	NPYLR7 agonist	NPYLR7 agonist max-min
Cc1cccc(C2c3[nH]c4ccccc4c3CCN2C(=O)Cn2cc3ccccc3n2)c1 (stereo not given)	1	-2
CC1C(=O)N(c2ccc([N+](=O)[O-])cc2)CCN1C(=O)C1CCCC1 (stereo not given)	-2	-2
C=C(C)CN1C(=O)NC(C)(c2ccc(OC(F)F)cc2)C1=O (stereo not given)	0	3
COc1ccc(N2C(=O)CC(NCc3ccco3)C2=O)cc1 (stereo not given)	-12	-17
COc1nn(C)cc1C(=O)NCCCc1ccccc1	1	3
Cc1cc(C)c(C(=O)CNC(=O)CSc2nc3ccccc3s2)c(C)c1	1	-2
CCc1nc2ccc(C(=O)NCCOc3ccc(OC)cc3)cn2c1N(CC)Cc1cccc(Br)c1	15	10
O=C(NC1CC(=O)N(C2CCCCCC2)C1)c1ccccc1-c1ncc[nH]1 (stereo not given)	12	10
OCCC1CN(C/C=C/c2ccccc2)CCN1Cc1ccccc1F (stereo not given)	3	-1
CN(CCCc1cnn(C)c1)C(=O)C(O)C(F)(F)F (stereo not given)	3	1
[O-][n+]1c(-c2ccc(Br)cc2)nc2ccc(Br)cn21	-7	-13
CN1CCCc2cc(C(CNC(=O)c3ccco3)N3CCCCC3)ccc21 (stereo not given)	5	5
N#Cc1ccccc1S(=O)(=O)N1CCCC1Cc1ccccc1 (stereo not given)	6	3
COc1ccc(S(=O)(=O)N(C)CCC=C2c3ccccc3CCc3ccccc32)cc1	-7	-13
CC(C)(C)P(=NC(=S)NN=Cc1cccs1)(N1CCOCC1)N1CCOCC1	4	4
CC(C)CCN(Cc1c(-c2ccc(F)cc2)noc1N1CCN(C)CC1)C(=O)c1cccs1	1	2
CCOC(=O)C1CCN(C(=O)c2ccc(-n3nc(-c4ccc(Cl)cc4)cc3N)cc2)CC1	-9	-13
CC(C)(NCc1cccc(C#N)c1)c1ccc2c(c1)OCO2	-6	-6
N#CC1(C#N)C(c2ccnnc2)C(C(=O)c2ccccc2)N2c3ccccc3C=CC21 (stereo not given)	7	0
OCc1cc(-c2cccc(N3CCNCC3)n2)ccc1F	2	3
O=C(c1ccccc1)N1CC[C@@]2(C1)[C@@H](O)CN(c1ccccc1)S2(=O)=O	8	23
COc1cc(-c2cc(C(=O)NC(Cc3ccccc3)c3ccccc3)c3ccccc3n2)cc(OC)c1OC (stereo not given)	27	22
CC(C)Cc1nc(N2CCN(C(=O)C3CC3)CC2)c2c(-c3cccc(Oc4ccccc4)c3)noc2n1	2	-4
O=C(CCc1ccc2c(c1)OCO2)Nc1ccc(OC(F)F)c(Cl)c1	10	2
COc1ccc(C2CCCN2Cc2cc(=O)n3ccc(C)cc3n2)c(OC)c1 (stereo not given)	-1	-1
CCCc1[nH]n(-c2nc3ccccc3s2)c(=O)c1C(C)=Nc1ccc(C(=O)OCC)cc1	3	40
CCOC(=O)c1cc(C(C)(C)C)n(C2CCN(C(=O)CNC(C)=O)CC2)n1	1	2
CCCCn1[nH]c2c3c(ccc2c1=O)C(=O)c1ccccc1C3=O	3	2
N#C/C(=C/c1cccc(O)c1)c1nc2ccccc2n1C(F)F	10	5
COc1ccc(Cl)cc1NC(=O)CCC1CCCN(c2nc(C)cc(C)n2)C1 (stereo not given)	22	10
COc1nn(C)cc1C(=O)N1CCN(C2=NN=C(c3cccs3)CS2)CC1	-13	-7
CC(C)(CNC(=O)NC(c1ccc(F)cc1)c1cccs1)N1CCOCC1 (stereo not given)	12	6
CC(=O)NCCNC(=O)c1ccc2nc(C)c(N(C)C(=O)Nc3ccc(C(C)=O)cc3)n2c1	3	0
Cc1cccc2nc(CN3CCc4sccc4C3c3cccs3)cc(=O)n12 (stereo not given)	0	-1
CCn1c(=O)c(C(=O)NC(C)c2ccccc2)nn(-c2cccc(C)c2)c1=O (stereo not given)	12	16
CC(=O)Nc1ccc(N=Cc2nc(-c3ccc(Br)cc3)oc2O)cc1	-2	-8

Part of the list above, with bars between the fields.
smiles | NPYLR7 agonist | NPYLR7 agonist max-min
CSc1ncc(CN2CCC(CO)(CC3CCCCO3)CC2)cn1 (stereo not given) | 15 | 4
CC(=O)c1cccc(NC(=O)COC(=O)c2cc(Br)c[nH]2)c1 | 3 | 3

Going on with the list:
SMILES	NPYLR7 agonist	NPYLR7 agonist max-min
Cc1cccc(CSc2nc(=O)[nH]c3c2CCCC3)c1	0	-4
Cc1ccc(NC2=C(N3CCOCC3)C(=O)c3ccccc3C2=O)cc1	-2	3
COc1cc(=O)n(C)c2c(OCC(O)C(C)(C)O)cccc12 (stereo not given)	1&-1	-7&-23
O=C(c1cn(C/C=C/c2ccccc2)nn1)N1CCC(c2ccc(F)cc2)C1 (stereo not given)	6	4
C(=C\c1ccccc1)/CNC12CC3CC(CC(C3)C1)C2	-2	-2
COc1cccc(CC2CN(C(=O)c3ccnc(-n4cnnc4)c3)CCO2)c1 (stereo not given)	7	6
Cc1cc(C)n(-c2cccc(C(=O)N3CCC(n4nccc4NC(=O)C4CC4)CC3)c2)n1	2	-2
COC(=O)C(=O)N1CCC(CCc2ccc3c(c2)OCO3)CC1	4	0
COCCNc1nc(NCCCN2CCCC2=O)c2sc(-c3ccccc3)cc2n1	8	4
O=c1nc(N2CCOCC2)nc(Nc2cccc(Br)c2)[nH]1	2	1
COc1cccc(CC2CN(C(=O)c3cnc(C)cn3)CCO2)c1 (stereo not given)	16	-2
COc1cc(-c2nc3ccccc3c(=O)n2-c2cc(C)cc(C)c2)cc(OC)c1OC	4	1
COc1ccc(OCCN2CCC(C(=O)NC(C)c3ccc(OC)c(OC)c3)CC2)cc1 (stereo not given)	17	7
O=S(=O)(Nc1ccccc1)c1cc(C(F)(F)F)ccc1Cl	-5	-8
CC1=C[C@@H](CN2CCC[C@H]2CO)[C@H](C(C)C)C[C@H]1Cc1nnc(C)o1	-7	-13
C=C(C)Cn1nc(C)c(-c2cc(C(=O)O)[nH]n2)c1C	-3	-5
O=C(Nc1cccc(C(F)(F)F)c1)Nc1ccc2nc(-c3ccncc3)nn2c1	-6	-8
CC1=NN(C(C)C)c2nc3c(c(=O)n(Cc4ccccc4F)c(=O)n3C)n2C1	0	5
COC(=O)C1C(=N)OC2=C(C(=O)CC(C)(C)C2)C1c1ccc(Cl)cc1Cl (stereo not given)	5	-2
COc1cccc2c1OCCCN(C(=O)c1c(C)cc(=O)oc1C)C2	1	-9
c1ccc(Cn2cnc3c(NCCc4ccncc4)nccc32)cc1	-3	0
CCS(=O)(=O)N1Cc2ccccc2CC1C(=O)N(C)Cc1ccc(Cl)cc1 (stereo not given)	-2	-3
CCOC(=O)c1csc(CSc2nnc(-c3ccccc3Cl)n2-c2ccccc2F)n1	-1	6
CCc1c2c(nc3ccc(O)cc13)-c1cc3c(c(=O)n1C2)COC(=O)[C@]3(O)CC	4	0

Some of the entries so far, as labelled records:
Compound: C=C(C)Cn1nc(C)c(-c2cc(C(=O)O)[nH]n2)c1C
  NPYLR7 agonist: -3	NPYLR7 agonist max-min: -5
Compound: CC1=NN(C(C)C)c2nc3c(c(=O)n(Cc4ccccc4F)c(=O)n3C)n2C1
  NPYLR7 agonist: 0	NPYLR7 agonist max-min: 5
Compound: O=C(Nc1cccc(C(F)(F)F)c1)Nc1ccc2nc(-c3ccncc3)nn2c1
  NPYLR7 agonist: -6	NPYLR7 agonist max-min: -8
Compound: CCc1c2c(nc3ccc(O)cc13)-c1cc3c(c(=O)n1C2)COC(=O)[C@]3(O)CC
  NPYLR7 agonist: 4	NPYLR7 agonist max-min: 0

Other compounds
SMILES	NPYLR7 agonist	NPYLR7 agonist max-min
Cc1nnc(CN(C)Cc2cn(C)nc2-c2ccc(C3CCCCC3)cc2)o1	2	0
O=C(CCc1ccc(=O)[nH]n1)N1CCCC(CNC(=O)C2(c3ccc(Cl)cc3)CC2)C1 (stereo not given)	4	-4
O=c1[nH]ncc(N/N=C/c2ccccc2F)c1Cl	-1	0
CCC(Oc1ccccc1)C(=O)Nc1cccc2c1C(=O)c1ccccc1C2=O (stereo not given)	-2	-7
CCN(CC)c1ccc(CN(C(=O)Nc2ccccc2OC)C(C)C)c(OS(=O)(=O)CC)c1	26	15
Cc1cc(C(=O)CCC(=O)OCC(=O)C23CC4CC(CC(C4)C2)C3)c(C)s1	-1	-2
Cc1ccc(CNC(=O)NC(C)c2ccncc2)cc1F (stereo not given)	8	4
COc1ccc(-n2ncc(Oc3ccccc3)c(Nc3cccc(C(=O)O)c3)c2=O)cc1	15	13

Screening results as filed in PubChem BioAssay.
